Menin MLL FP FL = qHTS Assay for Inhibitors Targeting the Menin-MLL Interaction in MLL Related Leukemias: Competition With Fluorescein Labeled MLL-derived Peptide; FP activity change, % at 61.4 µM; Fluorescence polarization, fluorescein-MLL peptide displacement from menin; 290,000 tested, under 10 active; inconclusive = falling polarisation curve, or a change in total fluorescence; inactive = total fluorescence flat and polarisation flat or rising; no compound was filed as active; the % refers to the polarisation; negative = inhibition;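 also: % of control where 0% means no effect; inhibitors lower the polarisation; unlabelled MLL peptide was the positive control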
D2 agonist = Beta-Arrestin HTS for Positive Allosteric Modulators of the Human D2 Dopamine Receptor: Agonists; D(2) dopamine receptor (Homo sapiens), P14416; DiscoveRx PathHunter D2 beta-arrestin, luminescence, 90 min; 100% = 57 uM dopamine signal; activation, % (test concentration not listed); 0.084% of 360,000 active; AID 624465, 2012; in the data active = activation above about 40%; inconclusive = about 15% to 40%; inactive = below about 15%; also: compound concentration not given in the record; the text of the record calls up to 30% inactive
Target sequence (P14416 whole entry, looked up): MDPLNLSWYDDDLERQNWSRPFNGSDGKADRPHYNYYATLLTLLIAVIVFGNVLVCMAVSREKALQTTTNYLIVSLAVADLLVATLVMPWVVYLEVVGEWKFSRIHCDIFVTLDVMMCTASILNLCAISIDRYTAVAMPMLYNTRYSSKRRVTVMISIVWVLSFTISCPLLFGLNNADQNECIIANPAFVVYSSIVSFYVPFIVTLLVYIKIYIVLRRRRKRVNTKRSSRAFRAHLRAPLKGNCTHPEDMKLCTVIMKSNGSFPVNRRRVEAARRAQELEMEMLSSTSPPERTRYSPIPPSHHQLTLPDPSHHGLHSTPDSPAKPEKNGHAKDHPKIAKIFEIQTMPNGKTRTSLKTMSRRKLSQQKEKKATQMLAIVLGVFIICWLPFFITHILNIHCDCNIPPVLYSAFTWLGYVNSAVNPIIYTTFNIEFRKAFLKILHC
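Agonist mode: compounds alone added to overnight-plated D2 PathHunter cells for 90 min at 37 C, with 57 uM final dopamine (EC100) defining full response. Beta-arrestin recruitment detected by chemiluminescent reagent, read after 1 h at ambient temperature.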
ClpP mod = qHTS Assay for Activators of ClpP; ATP-dependent Clp protease proteolytic subunit (Bacillus subtilis (strain 168)), P80244; purified B. subtilis ClpP, FRET peptide cleavage, 20 min; Potency, µM (titrated, usually from 57.5 µM), inactives show at the highest dose activity change, negative = active; 1.9% of 340,000 active; AID 651965, 2013; active = well fitted falling curve with a large enough effect; inconclusive = small, poorly fitted or top-dose-only effect; inactive = no such curve, though single readings can be large or run the other way; also: potency is read from the fitted curve at half-maximal effect; the source files actives as falling curves though it sought activators and does not explain the sign; nearly all actives have a fitted effect of over 65% in size; many hits overshoot -100%
Target sequence (P80244 whole entry, looked up): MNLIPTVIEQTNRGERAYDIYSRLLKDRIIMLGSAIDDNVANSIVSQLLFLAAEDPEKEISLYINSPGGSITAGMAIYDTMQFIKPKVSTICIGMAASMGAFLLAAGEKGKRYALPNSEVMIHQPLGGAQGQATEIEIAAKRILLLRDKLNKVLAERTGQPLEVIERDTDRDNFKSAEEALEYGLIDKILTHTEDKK
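FRET quenching reversal measured ClpP activation: 10 microg/mL B. subtilis ClpP at pH 8 with the FRET-FV decapeptide, read at 430 nm after 320 nm excitation. The 20-min minus 0-min signal was scaled between DMSO/no-enzyme wells and ADEP (5.8 microM final).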
Sfp inh = qHTS Assay for Inhibitors of Bacillus subtilis Sfp phosphopantetheinyl transferase (PPTase) | Potency, µM, inactives show max response, negative = inhibition, actives largely listed as inhibitors | Biochemical Sfp PPTase activity, qHTS | 3.5% of 310,000 active; active = well fitted inhibition curve with a large enough effect; inconclusive = small, poorly fitted or top-dose-only effect, or another doubt; inactive = no such curve, though single readings can be large or run the other way;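 also: the enzyme is Sfp with the accession as filed and its product quenches rhodamine fluorescence; potency is read from the fitted curve at half-maximal effect; 0% = enzyme reaction without inhibitor and -100% = no enzyme wells; top concentration of the series not given in the record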
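With Hepes-Na pH 7.6 buffer containing 10 mM MgCl2, Sfp (15 nM) modified BHQ-2-YbbR (12.5 uM) using rhodamine-CoA (5 uM). Two reads 30 minutes apart at 525/598 nm yielded each well's rate.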
gsp antagonist = qHTS for Antagonists of gsp, the Etiologic Mutation Responsible for Fibrous Dysplasia/McCune-Albright Syndrome: qHTS | Potency, µM (titrated, usually from 76.9 µM), inactives show at the top dose activity change, negative = inhibition, most hits filed as inhibitors | gsp-mutant cells, cAMP HTRF, 30 min; control for the full effect not named in the record | 0.4% of 340,000 active; active = falling curve of any shape with a large fitted effect; inconclusive = falling curve, mostly with a smaller effect; inactive = flat or rising curve; cell line not stated here;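 also: intracellular cAMP measured with PDE inhibitor Ro 20-1724 present during compound exposure; potency is read from the fitted curve at half-maximal effect; % is scaled to controls: 0 for no effect and ±100 for the full control effect; nearly all actives have a fitted effect of over 65% in size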
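G418-selected cells were plated in DMEM/10% FBS for 16-24 h at 37C, then treated with compounds plus the PDE inhibitor […] (300 uM solution added) for 30 min at 37C. Intracellular cAMP was measured by HTRF after 30 min lysis at room temperature.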
gsp ag = qHTS for Agonist of gsp, the Etiologic Mutation Responsible for Fibrous Dysplasia/McCune-Albright Syndrome: qHTS; gsp mutant cells, cAMP HTRF, 30 min; control for the full effect not named in the record; Potency, µM (doses to about 76.9 µM), inactives show at the top dose activation (cAMP increase), actives largely listed as activators; 0.13% of 340,000 active; active = well fitted activation curve with a large enough effect; inconclusive = small, poorly fitted or top-dose-only effect, or another doubt; inactive = no such curve, though single readings can be large or run the other way; cell line not stated here;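 also: phosphodiesterase inhibitor Ro 20-1724 added with compounds to block cAMP breakdown; potency is read from the fitted curve at half-maximal effect; nearly all actives have a fitted effect of over 60% in size; about a fifth of the inactives were tested at one dose only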
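Cells in DMEM/10% FBS with G418 were pretreated with compounds in DMSO plus […] (300 uM stock) for 30 min at 37C. cAMP was measured by HTRF (cAMP-d2 plus anti-cAMP antibody-K) after 30 min at room temperature.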
PINK1 expr mod = A Quantitative High throughput Screen to Identify Chemical Modulators of PINK1 Expression. PINK1 immunofluorescence, high-content cytometry, 24 h. Potency, µM (titrated, usually from 76.6 µM), without a hit: at the highest dose activation (PINK1 increase), hits mostly activators. 0.2% of 410,000 active. AID 624263, 2012; active = well fitted activation curve with a large enough effect; inconclusive = small, poorly fitted or top-dose-only effect; inactive = flat fitted curve, though single readings scatter; cell line not stated here;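 also: potency is read from the fitted curve at half-maximal effect; % of control where 0% means no effect; nearly all actives have a fitted effect of over 65% in size; a mitochondrial uncoupler was the plate control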
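Stable cell line treated 24 h with compounds at 5 concentrations (CCCP controls), then fixed and immunostained for PINK1 plus nuclear and cell stains; PINK1 immunofluorescence quantified by laser-scanning microplate cytometry.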
* = called active by the depositor; ? = inconclusive; / = not tested or not shown; & = joins results of further samples; [ ] = another dose, or the depositor's remark. This is a subset, so the mix of outcomes need not match the whole.

Compound,Menin MLL FP FL,gsp ag,PINK1 expr mod,D2 agonist,Sfp inh,gsp antagonist,ClpP mod
CCOC(=O)C(O)(c1ccc(N=c2ccccn2C)cc1)C(F)(F)F (configuration not stated),3.4,-27%[15.4 µM],-1.6%,-0.7,7%,-8%,1.6%
Cn1c(O)c(/C=C2\C=Nc3ccc(Br)cc32)c(=O)n(C)c1=O,?,-7%,2.0%,-1.0,-15%,0%,/
Cc1nn(Cc2ccccc2)c(C)c1C=C1C(=O)NC(=S)NC1=O,7.6,-21%,4.0%,-2.7,-97%,-6%,0.0%
CN(C)c1ccc(C=C(C#N)C#N)cc1,?,0%,1.0%,3.7,21%,1%,-0.9%
CCCCc1nc2ccccc2c(=O)n1-c1ccc(Cl)cc1[N+](=O)[O-],2.3,-4%,-4.3%[38.3 µM],2.1,2%,7%,-1.1%
CC(=O)O[C@@]12CO[C@@H]1C[C@H](O)[C@@]1(C)C(=O)[C@H](O)C3=C(C)[C@@H](OC(=O)[C@H](O)[C@@H](NC(=O)c4ccccc4)c4ccccc4)C[C@@](O)([C@@H](OC(=O)c4ccccc4)C12)C3(C)C (some centres not stated),-3.9,?,7.5%,-0.8,11µM*,8%,0.7%
CC(CCN1CC1)=NNC(=O)Nc1cccc2ccccc12,/,-7%,-0.9%,-2.8,/,-6%,?
CN1CC(C(=O)c2cccs2)C(c2ccc(Cl)cc2)C1 (configuration not stated),1.2,0%,1.7%,-1.7,17%,19%,/
Cc1ccc(N=Nc2c(O)[nH]c(=O)[nH]c2=O)c([N+](=O)[O-])c1,-0.9,12%,-0.7%,-3.7,8%,0%,1.5%
CC(C)n1c(O)c(C=NCc2cccnc2)c(=O)[nH]c1=S,-0.9,-12%,-0.6%,-9.1,-1%,3%,-1.8%
CS(=O)(=O)c1ccc(C2=C(CNC(=O)c3ccc([N+](=O)[O-])cc3)[C@H]3CC[C@@H](C2)N3CCOc2ccccc2)cc1,/,-39%,-0.7%,11,/,/,-1.9%
COc1ccc(-c2nc(CSCC(=O)N3CCC4(CC3)OCCO4)c(C)o2)cc1OC,4.4,1%,1.2%,-2.5,-7%,-12%,?
Cc1nc2ccccc2c(=O)n1-c1ccc(Br)cn1,1.5,3%[15.4 µM],-0.5%,-2.1,21%,8%,/
CN1CCC2(CC1)C(C#N)=C(N)NC(S)=C2C#N,?,?,-0.8%&6.1%,0.7&-0.2,-26%,-2%&-1%,-13%&-20%
CCc1c(C)nc(N)nc1N1N=C1SCC#N,5.0,?,3.7%[38.3 µM],-2.5,12%,9%,0.2%
S=c1[nH]nc(-c2ccco2)n1-c1cccc2ccccc12,-0.6,23%,0.5%,4.4,-15%,?,-1.3%
Cc1cccc(N=Cc2c(O)n(-c3ccccc3C)c(=O)[nH]c2=O)c1,8.3,6%,16%[38.3 µM],-0.6,7%,-1%,-2.5%
CN1OC[C@@H]2COc3ccc4ccccc4c3[C@@H]21,2.9,-12%,1.3%,4.3,6%,4%,/
O=C(NC(C(Cl)Cl)N1CCOCC1)c1ccccc1 (configuration not stated),0.2,5%,-0.7%,-2.8,?,5%,-0.9%
COc1ccccc1OP(=O)(Nc1ccc(Br)cc1)Oc1ccccc1OC,3.9,2%,2.6%,3.1,-8%,-17%,-0.2%
O=C1NC(=O)C2(Cc3ccccc3N3CCCC32)C(=O)N1 (configuration not stated),1.9,?,-1.0%[38.3 µM],1.0,-17%,2%,-8.7%
O=C(NCCO)c1nsnc1NCCCl,1.1,22%[15.4 µM],-1.6%,-1.6,?,/,/
c1cc(C2N3CCCN2CC3)ccn1 (configuration not stated),-16,0%,-0.5%,-3.9,11%,4%,-3.4%
CN1CCc2nc(N)c(C#N)c(-c3ccccc3)c2C1,?,-3%,11%[38.3 µM],-1.2,-8%,-17%,?
O=C1/C(=C\c2ccc3c(c2)OCO3)N2CCC1CC2,3.0,-8%,2.5%[38.3 µM],-2.0,9%,1%,-2.4%
COc1ccc(OC(=O)N(C)C[C@@H]2OCc3cnnn3CCCC(=O)N([C@H](C)CO)C[C@H]2C)cc1,/,?,0.3%,-7.0,/,/,-1.8%
Cc1ccc(S(=O)(=O)N2CN3CCN(C3)C2)cc1,-1.9,-4%,-2.6%,-6.1,13%,13%,0.7%
O=C(COc1ccccc1)N1CCN(CC2CC=CCC2)CC1 (configuration not stated),-5.8,22%[15.4 µM],0.5%,2.0,?,/,/
COc1ccc(OC)c(-n2c(O)c(C=Nc3c(C)n(C)n(-c4ccccc4)c3=O)c(=O)[nH]c2=O)c1,4.8,0%,0.0%,4.2,21%,-1%,-2.7%
CC(C)CCC1(CCO)C(=O)NC(=S)NC1=O,/,7%,0.1%,-4.8,/,5%,/
O=C(c1ccc2c(c1)OCO2)C1CCCN(CC2CCCCC2)C1 (configuration not stated),2.0,30%,7.9%,-1.0,8%,5%,/
COc1cccc(CN(C)C(=O)c2cccc(S(=O)(=O)N3CCN(c4ccccc4)CC3)c2)c1,/,0%,-1.2%,-0.9,/,/,-0.4%
c1ccc(C2CC3CC(c4ccco4)N2O3)cc1 (configuration not stated),-1.0,25%,1.0%,-2.5,3%,-6%,-3.5%
O=c1c2ccccc2nc(/C=C/c2ccc3c(c2)OCO3)n1-c1cccc(O)c1,2.3,18%,0.2%,2.4,7%,-12%,-4.3%
COc1cc(OC)cc(-c2sc3ccc(OC)cc3c2-c2ccc(OCCN3CCOCC3)cc2)c1,/,/,-0.2%,?,/,-7%,8.9µM*
COC(=O)COc1cc(C)cc2oc(=O)c3c(c12)CCCC3,0.1,?,/,-2.8,20%,-5%,-16%
Cc1cc2c(s1)NC(=O)CN=C2c1cccs1,-3.1,18%,1.2%,0.9,16%,-9%,-0.5%
CCc1ccccc1NC(=O)CSc1nnc([C@@H](N)Cc2c[nH]c3ccccc23)o1,5.8,25%,1.7%,-1.3,-5%,3%,-1.3%
COC(=O)C1=C(c2ccc(Cl)c(C(F)(F)F)c2)C[C@@H]2CC[C@H]1N2C(=O)NCCCOC(C)C,/,-16%,3.4%,-2.3,/,0%,-1.9%
COc1ccc(C)cc1NC(=O)N1CCC2(CC1)OCCO2,2.1,?,-0.4%,-5.2,16%,3%,0.3%
Cc1ccccc1CS(=O)(=O)Cc1ccc(C(=O)N2CCC3(CC2)OCCO3)o1,0.8,-1%,8.1%,-4.1,9%,-14%,0.5%
O=C(CCN1C(=O)COc2ccccc21)N1CCC2(CC1)OCCO2,0.8,?,-0.2%[38.3 µM],1.4,7%,2%,0.0%
N=c1sccn1Cc1ccccc1F,3.2,17%[15.4 µM],1.0%,-0.1,3%,10%,/
CC(C)(C)C(=O)N1Cc2cnnn2-c2ccccc2C1C#N (configuration not stated),/,/,-1.6%,-1.3,/,-6%,-3.1%
CCNCC(O)c1cccc(O)c1 (configuration not stated),0.0,/,-0.4%,-3.1,4%,5%,0.4%
CC(C)(C)OC(=O)N(CCc1ccccc1)Cc1ccc(OCc2cccc(NC(=O)c3ccccc3)c2)cc1,/,/,0.1%,-1.1,/,2%,?
C=CCc1cc(OC)c2c(c1OC)OCO2,-2.4,/,-0.1%,/,8%,/,/
COC1=CC(=O)O[C@@H](/C=C/c2ccccc2)C1,/,/,1.3%,-8.2,/,-12%,0.6%
CCOP(=O)(OCC)C(O)c1ccccc1 (configuration not stated),2.2,7%,0.0%,-3.1,7%,7%,1.0%
CCc1c(C)nc(N)nc1N1N=C1SCCOc1ccccc1,0.9,-1%,-0.8%,0.8,-6%,0%,/
O=C(Nc1ccccc1)N1CC[C@@]2(CCCN(C(=O)Oc3ccccc3)C2)C1,0.4,/,-0.5%,/,-2%,/,/
C=C1C(C)C2C(Cc3ccccc3)NC(=O)C23C(OC(C)=O)C=CC(C)(O)CC(C)CC=CC3C1O (configuration not stated),/,-20%,?,0.0,/,-1%,-1.4%
O=C1/C(=C/c2ccc(F)cc2)Oc2cc(OC(=O)N3CCOCC3)ccc21,2.9,1%[15.4 µM],18%,-4.3,7%,5%,18µM*
CCN1C(=O)N(CC)C(=O)C2(Cc3ccccc3N3CCN(c4ccccc4)CC32)C1=O (configuration not stated),-9.6,-5%,0.6%,-1.2,71µM*,-13%,-2.1%
COc1ccc(C/C(=N\OC(C)=O)c2ccc(OC)cc2)cc1,-2.0,-3%,-0.9%,0.1,-22%,-21%,/
CC1(C)CN=C(NCc2ccccc2)S1,/,-10%,-0.7%,2.0,/,?,-1.7%
COC(=O)C(O)(c1ccc(NC(=O)NC2CCCCC2)cc1)C(F)(F)F (configuration not stated),2.6,-58%[inhibitor],2.3%,-2.3,7%,14%,0.6%
CCN1C[C@]2(C)CC[C@H](O)[C@]34C1[C@H](C[C@H]23)[C@@]1(O)C[C@H](OC)[C@H]2C[C@@H]4[C@@H]1C2O (some centres not stated),/,/,0.4%,-3.6,/,-1%,1.9%
CC(C)C(NC(=O)C(C(C)C)N(C)C)C(=O)N(C)C(C(=O)N1CCCC1C(=O)N1CCCC1C(=O)NCc1ccccc1)C(C)C (configuration not stated),/,-37%[inhibitor],6.2%,-4.2,/,12%,0.9%

Screening results from PubChem.
